Assay outcomes as filed in PubChem.
PrP 5UTR inh: inhibition of PrP 5' UTR reporter expression; cell-based PrP 5' UTR mRNA reporter, plate reader; inhibition, % (no concentration beside the values); 0.35% of 340,000 active;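 active = every replicate at 50% or more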;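 also: 0 = median of the neutral control wells; tested in H4 reporter cells; numbers are from one replicate; inactives centre near -14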
BJeLR lethal: MLPCN primary cell-based screen for lethality selective to Ras in HRASV12 cells. BJeLR (HRASV12) viability, CellTiter-Glo ATP luminescence, 48 h; reference of the scale not given here. inhibition, % (test concentration not listed). 0.17% of 300,000 active. AID 1554, 2009;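 active = replicate mean above 50%; inconclusive = above 50% but judged a plate artefact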;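 also: 50 nL library stock added to about 25 µL; numbers are from one replicate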
RN4220 kill: growth inhibition of S. aureus RN4220, primary screen, OD600; 0.33% of 330,000 active; inhibition, % (test concentration not listed); 16 h;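 active = z-score of -3 or lower and OD600 up to 0.18 on both plates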;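 also: plate controls were untreated cells for no effect and reference antibiotic for full effect; stock transfer was 100 nL into about 80 µL; one replicate is shown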
Mtb hypoxia rep: PubChem AID 1159583. M. tuberculosis hypoxia-regulated fluorescent reporter, fluorescence. fluorescence inhibition, % (test concentration not listed). 0.1% of 300,000 active;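 active = 35 to 45% if threefold the growth effect, above 45% if 1.5-fold the growth effect; inactive = the rest, general growth blockers included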;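 also: wells of about 50 µL received 100 nL stock; 0% = vehicle wells and 100% = reference inhibitor wells; whole bacteria with a GFP reporter of the hypoxia response; strong numbers were not always called active; many hits fall short of the cut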
Autofluor counter: compound fluorescence in toxin protease inhibitor counterscreen | fluorescence intensity (concentration not given with the values) | AID 624483 | 3.1% of 360,000 active | compound autofluorescence counterscreen, microsphere flow cytometry; active compounds read high;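 active = at least 3 SD above the mean of all compounds, about 16000 in these data; inconclusive = too few beads counted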;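 also: 100 nL of 1 mM stock went into each well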
Sa ugtP lethal: growth inhibition of ugtP-null S. aureus, primary screen, RN4220 ugtP deletion, OD600; 16 h; some inactives read as strong as hits; growth inhibition, % (test concentration not listed); 0.54% of 330,000 active; AID 1259309, 2017;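 active = z-score under -3 and OD600 up to 0.15 on both plates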;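 also: plate controls were untreated wells for no effect and antibiotic for full effect; wells of about 80 µL received 100 nL stock; the first replicate is given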
Mtb hypoxia rep growth: further read-out of Mtb hypoxia rep, marked with its call; growth inhibition, %; measured here: M. tuberculosis growth (absorbance);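 0% = vehicle and 100% = reference antibiotic; read after six days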
* marks the source's active call; other numbers are inactive results; ? = inconclusive; . = no result given.

Molecule,Mtb hypoxia rep growth,RN4220 kill,Autofluor counter,Sa ugtP lethal,PrP 5UTR inh,Mtb hypoxia rep,BJeLR lethal
COc1ccccc1N1CCN(S(=O)(=O)Cc2ccccc2Cl)CC1,1,6.6,9256,6,-36,8,-2
CCOc1ccc(C(=O)c2ccc(OCC)c(N)c2)cc1N,-4,9.3,16397*,8,-30,6,3
O=C(Nc1ccc(N=Nc2ccccc2)cc1)c1cccc(Cl)c1,9,1.2,11626,5,-48,12,8
CN(CCOc1ccccc1)C(=O)C1CCN(C(=O)c2ccc(Cl)cc2)CC1,0,-4.1,6519,18,-6,-3,8
COc1ccccc1C(=O)NC(CCSC)C(=O)NCCCn1nc(C)cc1C (centres undefined),10,2.0,4984,7,-11,12,-6
CC1(C)CC2CC(C)(CN2C(=O)COC(=O)Cn2[nH]c(=O)c3ccccc3c2=O)C1 (centres undefined),-1,0.4,3926,-4,-5,-9,3
CSCCC(N=C1NS(=O)(=O)c2ccccc21)C(=O)NCc1ccccc1F (centres undefined),4,-0.7,5417,1,-4,3,-5
CC(=O)c1c(C)[nH]c(C(=O)OCC(=O)NCCCc2ccccc2)c1C,12,3.3,3005,4,-19,24,.
N#Cc1nc(Cc2ccccc2)oc1N1CCC(C(N)=O)CC1,9,-9.5,3121,-4,-17,9,-1
CNc1nc(-c2ccc3c(c2)CCN3S(=O)(=O)c2ccccc2)c(C)s1,-2,6.7,4720,0,-9,-5,-2
CCNc1cc(=O)n(C)c(=O)n1C,.,0.3,2727,5,-18,.,-1
COc1cc2nc(Nc3cccc(F)c3)nc(N)c2cc1OC,-8,6.6,3011,1,-8,5,7
O=C(Nc1nncs1)c1cccnc1Cl,5,2.5,11080,0,-30,8,4
O=C(c1cc(Cl)cc(Cl)c1)N1CCC(=O)N(C(COCc2ccccc2)Cc2ccccc2)CC1 (centres undefined),16,2.0,3589,4,-12,17,5
COC(=O)c1ccccc1NC(=O)COC(=O)c1ccc(C)c(NC(=O)c2ccco2)c1,3,4.2,21306*,9,-8,4,-5
CC1=CS(=O)(=O)CC1SC(=S)N(C)C1CCS(=O)(=O)C1 (centres undefined),5,1.1,4417,5,50,4,5
CC1CCCC(NC(=O)CCNC(=O)c2ccccc2Cl)C1C (centres undefined),-12,4.1,?,8,-15,6,-13
Cc1cc(NC(=O)/C=C/c2ccccc2Cl)n(-c2nc3ccccc3[nH]2)n1,-2,-3.7,2221,-6,-36,-4,1
COc1ccc2[nH]c(=O)c(-c3noc(-c4ccccc4)n3)cc2c1,14,-4.0,2336,-10,-40,15,7
Cc1cc(C(=O)OCC(=O)NC2CCC(C)CC2)c(C)o1 (centres undefined),3,1.8,3934,2,-41,-5,.
Cc1ccc(C(=O)CSc2nnc(COc3cccc(C)c3)o2)cc1,8,6.3,?,-12,-7,5,0
O=C(NC(=S)Nc1ccc2c(c1)OCCO2)c1ccccc1F,6,4.6,4450,5,-18,-4,-5
Cc1nnc(N2C(=O)C(=O)/C(=C(/O)c3ccc4c(c3)OCCO4)C2c2ccc([N+](=O)[O-])cc2)s1 (centres undefined),.,.,5051,.,-14,.,-3
Cc1ccc(-c2ccc(C3C(C#N)=C(N)Oc4n[nH]c(C)c43)o2)cc1 (centres undefined),9,3.0,4131,-1,-17,7,-2
COc1ccc(C2N(C(=O)N(C)C)CCN2S(=O)(=O)c2ccc(OC)cc2)cc1 (centres undefined),1,2.7,4721,13,-14,-18,0
CCCN(C(=O)Cn1nc(C)c([N+](=O)[O-])c1C)c1c(N)n(Cc2ccccc2)c(=O)[nH]c1=O,-6,-1.9,4618,-4,-3,-12,2
CCN(CC(=O)Nc1ccc2c(c1)OCCO2)C(=O)/C=C/c1cccc(Br)c1,7,2.0,5485,3,-33,-2,6
O=C(CCC(=O)N(CC(=O)NC1CCCCC1)CC1CCCO1)Nc1nccs1 (centres undefined),-3,7.9,3969,4,-14,-2,-6
COc1ccc(OC)c(/C=N/N=C(\N)c2nonc2N)c1,.,.,4095,.,8,.,-1
O=C(Nc1ccc2nn(-c3ccccc3)nc2c1)c1ccc2c(c1)OCO2,6,-1.3,14806,-9,-14,4,0
C=CCOc1ccc(/C=C2\SC(=Nc3cccnc3)NC2=O)cc1,4,4.6,4180,-15,-20,13,-1
O=C(O)c1ccc2c(=O)n3cc(C(=O)c4ccccc4O)cc(Cl)c3nc2c1,-7,0.9,4688,5,-1,12,7

Next section, overlapping the part above by 2 compounds.
Molecule,Mtb hypoxia rep growth,RN4220 kill,Autofluor counter,Sa ugtP lethal,PrP 5UTR inh,Mtb hypoxia rep,BJeLR lethal
C=CCOc1ccc(/C=C2\SC(=Nc3cccnc3)NC2=O)cc1,4,4.6,4180,-15,-20,13,-1
O=C(O)c1ccc2c(=O)n3cc(C(=O)c4ccccc4O)cc(Cl)c3nc2c1,-7,0.9,4688,5,-1,12,7
CC(C)COc1cc(=O)[nH]c(SCC(C)C)n1,3,2.1,4433,-8,-5,17,5
Cc1ccc(NC(=O)Nc2ccc3c(c2)CCC3)c(C)c1,8,4.5,5622,5,-22,4,.
Cc1ccc(C(=O)Oc2coc(CSc3nnc(NC(=O)c4cccs4)s3)cc2=O)cc1C,7,5.1,2367,-5,-1,-8,-7
CN1CCC(NC(=O)c2cc(-c3cccc(Br)c3)nc3ccccc23)CC1,14,-9.5,5838,6,-22,11,8
Cc1ccc(N2C(=O)[C@@H]3C(c4cccnc4)=NO[C@@H]3C2=O)c(C)c1,8,2.5,4467,3,-1,2,2
Cn1nccc1C(=O)NC1CCN(Cc2ccccc2)CC1,2,6.3,5903,3,2,6,11
CC1OC(NCCc2ccccc2)C(O)C(O)C1O (centres undefined),.,-3.0,4518,-4,-3,.,-5
CCOc1cccc(C2C(C(=O)c3cccs3)=C(O)C(=O)N2Cc2cccnc2)c1 (centres undefined),-4,-0.6,3080,-11,-5,-8,1
CNC(=O)Oc1ccccc1C1CCCCC1,.,3.4,3053,2,-20,.,.
CCOC(=O)N1CCN(c2c(NCCc3ccccc3)c(=O)c2=O)CC1,7,2.3,4466,6,28,15,-11
CCOc1cc(C=NNC(=O)c2cccnc2)ccc1O,8,0.0,.,-1,.,4,.
O=C(Cc1ccccc1)N1CCN(CC2CC=CCC2)CC1 (centres undefined),4,3.0,4316,8,-14,9,4
Cn1cccc1C(=O)OCC(=O)NCc1cccs1,7,3.4,3684,9,-28,3,.
O=c1c2ccccc2cnn1-c1ccc(Br)cc1,.,-2.9,2688,7,-61,.,2
CCC(=O)c1cc(Br)ccc1OCC(=O)N1CCN(S(=O)(=O)c2ccccc2)CC1,1,4.4,2903,3,-32,4,.
CCN(CC)c1ncnc2sc(C(=O)N3CCN(c4ccc(OC)cc4)CC3)c(C)c12,.,5.8,4810,8,-32,.,-6
CCCCNC(=O)c1onc(CSc2cccc(F)c2)c1C(=O)O,3,9.6,3548,2,-17,11,7
CCO[C@@H]1OC(C(=O)N2CCCCCCC2)=C[C@H](c2ccc3c(c2)OCO3)[C@H]1CCCO,.,.,4179,.,-22,.,8
CSC1=NSC2=NC(=O)/C(=C\c3coc4ccccc4c3=O)C(=N)N12,2,23,2755,10,-34,6,.
Nc1nc(COc2ccc(F)cc2Cl)nc(N2CCCCC2)n1,2,8.0,4524,6,-18,2,-17
CCOC(=O)c1cc(-c2cccc(C(F)(F)F)c2)nc2nc(SC)[nH]c(=O)c12,5,-0.9,2061,-13,-21,-5,-2
COC(C[C@@H]1O[C@H]1[C@@H](O)[C@@H](C)OCc1ccccc1)OC,.,.,3147,.,-11,.,5
CCOc1ccccc1NC(=O)Cn1cnc2c(nnn2-c2cccc(OC)c2)c1=O,5,-15,5460,-8,-1,3,-6
CC(C)N(CCCNC(=O)C1CCN(S(=O)(=O)N2CCOCC2)CC1)Cc1ccccc1,9,-15,3359,-5,-17,3,5
CCOC(=O)N1C2=NC(C(=O)OC)=C(C(=O)OC)[C@@H]3N(C)c4ccccc4[C@]23C[C@H]1C(=O)OC,.,.,3899,.,-27,.,2
Cc1c(C(=O)O)cccc1-c1ccc(C=Nn2cnnc2)o1,9,5.1,.,7,.,6,.
O=C(CSc1nnc(-c2ccccn2)o1)Nc1ccccc1,13,-1.5,3946,4,-22,2,-1
COC(=O)c1nc2cc(C)ccn2c1F,5,1.4,4280,8,-5,-1,9
CN(CC(=O)Nc1c(Cl)cccc1Cl)C(=O)c1cccc(S(=O)(=O)NCc2ccccc2)c1,6,4.7,6843,5,-21,1,0
Cc1cc(C)n2c(SCC(=O)Nc3cc(S(=O)(=O)N(C)C)ccc3C)nnc2n1,4,1.7,4056,6,-21,5,.
COc1ccccc1NC(=O)CN(Cc1ccccc1)S(C)(=O)=O,.,3.0,3296,-3,-7,.,-1
CC(=O)N1CCc2cc(S(=O)(=O)NCCC(=O)Nc3cccc(C)c3)ccc21,-6,3.8,3361,9,0,-1,3
Cc1cccn2c(=O)c3cc(C(=O)NCCN4CCOCC4)c(=N)n(CCc4ccccc4)c3nc12,8,-14,3146,-14,-8,15,9
N#Cc1c(N)nc(SCc2ccncc2)c(C#N)c1-c1cccs1,2,9.1,10270,16,-1,4,10
Cc1ccc(-c2nc3c(Cl)cc(Cl)cc3c(=O)n2O)cc1,3,99*,3269,99*,-5,-3,-5
COc1ccc(NC(=O)CCCNC(=O)Cn2cnc3sc(C)c(C)c3c2=O)cc1OC,-11,1.0,3690,-1,-18,-20,-9
O=C(NCc1cccnc1)C1CCCN(Cc2cnn(-c3ccccc3)c2-n2cccc2)C1 (centres undefined),8,14,23887*,-3,-22,8,1
COc1ccc(CCNC(=O)CN2CCN(c3cccc(Cl)c3)CC2)cc1OC,11,6.1,4822,10,-21,20,6
O=C(COC(=O)c1ccc([N+](=O)[O-])s1)NNC(=O)c1ccccc1,4,5.8,6130,10,-19,18,.
O=c1[nH]c2ccc(NC(=S)Nc3ccc(Cl)cc3Cl)cc2[nH]1,-2,1.1,10796,7,-23,5,19
CCOC(=O)c1sc(N)nc1C(F)(F)F,2,4.6,4129,3,-8,3,.
COCCCn1c(SCC(=O)NNC(=O)c2cccc(O)c2)nnc1-c1ccncc1,2,1.3,4298,2,-2,1,-6
CC(CC(=O)Nc1ccc(N(C)C)cc1)=NNC(=O)c1ccc(C(C)(C)C)cc1,-5,2.7,.,2,.,-6,.
COC(=O)CNC(c1ccccc1)c1cc(Br)ccc1NS(=O)(=O)c1ccc(C)cc1 (centres undefined),2,16,8475,2,-20,9,-16
CS(=O)(=O)c1nc2c(cc1C#N)CCCC2,-1,5.2,1989,4,-2,4,5
O=C(C[n+]1cccc(C(=O)Nc2ccccc2)c1)c1ccc([N+](=O)[O-])cc1,.,.,6130,.,7,.,-4
CC(=NNC(=O)c1ccc(Br)s1)c1cccnc1,1,7.0,.,5,.,14,.
CN(C)S(=O)(=O)N1CCN(c2ccnc3cc(Cl)ccc23)CC1,20,-0.8,3301,2,-19,-3,-4
OCCCn1c(CCNc2nc(-c3ccc(Cl)cc3)cs2)nc2cc(C(F)(F)F)ccc21,.,.,3799,.,-11,.,-1
CCOC(=O)N1CCC(NC(=O)CCc2ccccc2)CC1,4,-1.2,3631,-2,-28,0,1
O=C(NCc1ccco1)c1cccc(N2CCCC2=O)c1,8,6.2,9703,11,-7,7,-4
C/C(N)=C(/C#N)C(=O)CSc1nc2ccccc2n1CC(C)C,2,0.9,3515,-3,-16,1,0
O=C(CSc1nnc(Cc2ccc(Cl)cc2)o1)Nc1ccccc1,6,5.1,6108,11,-14,8,1
CCN1C(=O)CC(N2CCOCC2)C1=O (centres undefined),.,1.6,4580,3,-15,.,-2
COc1ccc(CNC(=O)c2ccc(Br)s2)cc1OC,-5,-2.0,6553,1,-22,6,6
Cc1cccc[n+]1CC(=O)c1ccc(Cl)cc1,-1,2.3,3340,5,-32,0,2
